KCNQ2 pot: KCNQ2 (rat) channel potentiation; O88943; B-score at 10 µM; hit rate 0.54% among 310,000; AID 2239; CHO-K1 KCNQ2, FluxOR thallium flux fluorescence; hits give high values;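 active = fluorescence ratio B-score at least 3 SD of library B-scores, with initial fluorescence B-score within 3 SD, cut at about 5.3 in these data; same plate scores as AID 2156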;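 also: B-score of peak minus minimum over baseline fluorescence ratio after K+ and Tl+ stimulus; positive B-score means potentiation of KCNQ2 with more thallium influx and brighter signal; only the inactives scoring about 0 or higher are listed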
Target sequence (O88943 whole entry, looked up): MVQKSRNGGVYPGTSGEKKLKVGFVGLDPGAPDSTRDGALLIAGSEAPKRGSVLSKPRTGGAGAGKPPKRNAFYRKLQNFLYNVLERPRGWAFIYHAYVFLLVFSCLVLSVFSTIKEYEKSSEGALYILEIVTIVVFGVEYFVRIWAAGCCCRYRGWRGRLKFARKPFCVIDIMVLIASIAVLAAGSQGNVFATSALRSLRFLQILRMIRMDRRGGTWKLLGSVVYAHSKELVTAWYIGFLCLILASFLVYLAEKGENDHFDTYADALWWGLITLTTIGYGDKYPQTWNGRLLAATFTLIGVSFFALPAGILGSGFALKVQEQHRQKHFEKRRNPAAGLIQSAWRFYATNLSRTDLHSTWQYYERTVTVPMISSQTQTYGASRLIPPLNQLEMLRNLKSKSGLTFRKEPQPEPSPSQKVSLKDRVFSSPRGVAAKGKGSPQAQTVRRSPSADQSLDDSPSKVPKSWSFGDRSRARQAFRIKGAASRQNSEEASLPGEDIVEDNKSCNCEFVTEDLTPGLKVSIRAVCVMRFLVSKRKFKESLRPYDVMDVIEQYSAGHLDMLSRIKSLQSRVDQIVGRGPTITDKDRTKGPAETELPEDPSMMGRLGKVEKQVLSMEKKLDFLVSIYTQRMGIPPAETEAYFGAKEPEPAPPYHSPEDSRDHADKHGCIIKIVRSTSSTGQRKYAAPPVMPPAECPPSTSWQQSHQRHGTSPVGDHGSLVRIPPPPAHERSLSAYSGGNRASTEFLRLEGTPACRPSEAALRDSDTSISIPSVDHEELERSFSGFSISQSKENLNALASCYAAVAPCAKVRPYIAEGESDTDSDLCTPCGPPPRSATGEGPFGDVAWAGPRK
KCNQ2 pot baseline: also measured in KCNQ2 pot; calls as there; B-score; compound at 10 µM; measured here: initial fluorescence intensity artifact check;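 brightness before thallium and not channel activity; 0 = typical well and far values either way flag optical interference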
An asterisk follows results filed as active. This is a subset (hit frequency here may not be typical).

Results for CCN(CC)S(=O)(=O)c1ccc(NCCc2ccccn2)nc1 ?
KCNQ2 pot: 1.1; KCNQ2 pot baseline: -0.43

How did CC(C)(C)c1ccc(C(=O)c2c[nH]c(C(=O)NCC3CCCO3)c2)cc1 (stereo not given) do in these assays?
KCNQ2 pot: 0.11; KCNQ2 pot baseline: -1.3

Results for CCN(CC)C(=O)c1cnn(-c2ccccc2)c1NC(=O)c1ccco1 ?
KCNQ2 pot: 0.02; KCNQ2 pot baseline: 0.17

What do the screens show for `CCn1cc(C(=O)NCc2ccc(Cl)cc2)c(=O)c2cc(S(=O)(=O)N(C)C)ccc21`?
KCNQ2 pot: 0.17; KCNQ2 pot baseline: -3.3

What do the screens show for `COc1cccc(NC(=O)c2cc([N+](=O)[O-])ccc2NC(=O)CNCC2CCCO2)c1` (stereo not given)?
KCNQ2 pot: 0.37; KCNQ2 pot baseline: 0.3

Results for Cc1cc(OCC(=O)N2CCC(C(N)=O)CC2)c2c(C)cc(=O)oc2c1 ?
KCNQ2 pot: 0.04; KCNQ2 pot baseline: -0.19

Results for Cc1nc2nc(SCC(=O)NCc3ccco3)nn2c(C)c1Cc1c(F)cccc1Cl ?
KCNQ2 pot: 2.2; KCNQ2 pot baseline: -1.6

How did COCCCN1CN=C(NS(=O)(=O)c2ccc(C)cc2)NC1 do in these assays?
KCNQ2 pot: 1.3; KCNQ2 pot baseline: 0.85

Results for CN(C(=O)COc1ncnc2sccc12)c1ccccc1 ?
KCNQ2 pot: 1.1; KCNQ2 pot baseline: 0.07

What do the screens show for `Cc1cccc(OCc2ccc(C(=O)Nc3ccc(F)cc3)cc2)c1`?
KCNQ2 pot: 0.31; KCNQ2 pot baseline: 1.1

How did Oc1ccc(-c2n[nH]c(=S)n2-c2ccc3c(c2)OCCO3)c(O)c1 do in these assays?
KCNQ2 pot: 1.1; KCNQ2 pot baseline: 0.24

Results for COc1ccc(CCNC(=O)CN2C(=O)CSc3ccc(S(=O)(=O)N4CCOCC4)cc32)cc1OC ?
KCNQ2 pot: 0.84; KCNQ2 pot baseline: -0.92

How did CCN(CC)C(=O)C(=O)c1cn(CC(=O)N2CCc3ccccc3C2)c2ccccc12 do in these assays?
KCNQ2 pot: 0.14; KCNQ2 pot baseline: -2.3

Results for CCOc1ccc(N2CC(=O)N(c3ccc(OCC)cc3)CC2=O)cc1 ?
KCNQ2 pot: 1.3; KCNQ2 pot baseline: -0.13

Results for Cc1cc(C(=O)N/N=C/c2ccc([N+](=O)[O-])o2)c(C)o1 ?
KCNQ2 pot: 0.31; KCNQ2 pot baseline: -1

Results for CC(C)CN1C=C2C(=O)C(C)(OC(=O)CCc3ccccc3)C(=O)C=C2C=C1c1ccc(C#N)cc1 (stereo not given) ?
KCNQ2 pot: 0.62; KCNQ2 pot baseline: 1.1

What do the screens show for `Cc1ccccc1C(=O)N(CC(=O)Nc1sc(C)c(C)c1C(N)=O)C1CCCC1`?
KCNQ2 pot: 2.8; KCNQ2 pot baseline: -1.1

What do the screens show for `CCOC(=O)CON1C(=O)C(=O)N(OCC(=O)OCC)[C@H]2CCCC[C@H]21`?
KCNQ2 pot: 0.43; KCNQ2 pot baseline: -2.2

What do the screens show for `CCOc1ccc(CCNC(=O)c2ccc3nc(CC)c(CC)nc3c2)cc1`?
KCNQ2 pot: 0.01; KCNQ2 pot baseline: 0.04

Results for Cc1ccc2oc(Nc3nc(C)c(C)c(C)n3)nc2c1 ?
KCNQ2 pot: 0.09; KCNQ2 pot baseline: 0.83

Filtered by structure: the entries above containing fluorine (2)
Results for Cc1nc2nc(SCC(=O)NCc3ccco3)nn2c(C)c1Cc1c(F)cccc1Cl ?
KCNQ2 pot: 2.2; KCNQ2 pot baseline: -1.6

What do the screens show for `Cc1cccc(OCc2ccc(C(=O)Nc3ccc(F)cc3)cc2)c1`?
KCNQ2 pot: 0.31; KCNQ2 pot baseline: 1.1

Remaining list, next part.
Results for COc1ccc(-c2csc(NC(C)c3nc4cc(Cl)c(N5CCCCC5)cc4n3CCOCCO)n2)cc1 (stereo not given) ?
KCNQ2 pot: 0.57; KCNQ2 pot baseline: -0.3

What do the screens show for `CCOc1cc(CN2CCC(n3nccc3NC(=O)C3CC3)CC2)ccc1O`?
KCNQ2 pot: 0.03; KCNQ2 pot baseline: 0.27

What do the screens show for `Cc1cc(=O)[nH]c(=O)n1Cc1ccccc1`?
KCNQ2 pot: 0.81; KCNQ2 pot baseline: -1.8

What do the screens show for `Cc1ccc(NC2=C(Cl)C(=O)c3ccccc3C2=O)cc1`?
KCNQ2 pot: 1.1; KCNQ2 pot baseline: -1.5

Results for Cc1cc(C)nc(NC(=O)/C=C/c2cccs2)c1 ?
KCNQ2 pot: 1.8; KCNQ2 pot baseline: 0.12

What do the screens show for `COc1ccc(CCN(C)C(=O)c2ccc(S(=O)(=O)NCc3ccco3)cc2)cc1OC`?
KCNQ2 pot: 1.7; KCNQ2 pot baseline: -2.3

Results for O=C(CCCn1c(SCC(=O)c2ccccc2)nc2ccccc2c1=O)NCC1CCCO1 (stereo not given) ?
KCNQ2 pot: 1; KCNQ2 pot baseline: -2

Results for Cc1cc(NC(=O)NCc2ccccc2)c(=O)n(Cc2ccc(F)cc2)c1 ?
KCNQ2 pot: 0.1; KCNQ2 pot baseline: 0.03

What do the screens show for `NS(=O)(=O)c1ccc(N=Nc2c(O)ccc3ccccc23)cc1`?
KCNQ2 pot: 0.62; KCNQ2 pot baseline: 1

Results for Cc1nc2sc3c(c2c(=O)n1N)CCC3 ?
KCNQ2 pot: 0.66; KCNQ2 pot baseline: 0.05

What do the screens show for `COc1cccc(/C=N/NC(=O)c2ccc(=O)n(C)c2)c1OC`?
KCNQ2 pot: 1.2; KCNQ2 pot baseline: -2.1

Results for NC1=NC(=O)/C(=C\c2ccco2)S1 ?
KCNQ2 pot: 0.56; KCNQ2 pot baseline: 0.01

Results for COc1ccc(C(C)=O)cc1COc1ccc(-n2cnnn2)cc1 ?
KCNQ2 pot: 0.47; KCNQ2 pot baseline: -0.05

Results for O=C(CC1C(=O)NCCN1Cc1cccc(C(F)(F)F)c1)NC1CCCCCC1 (stereo not given) ?
KCNQ2 pot: 0.06; KCNQ2 pot baseline: 1.1

Results for CCn1cc([C@@H]2C[C@H]3CN(Cc4cccc(Cl)c4)C(=O)[C@]34CCCN24)c(C)n1 ?
KCNQ2 pot: 0.02; KCNQ2 pot baseline: 0.13

How did COc1ccc(C)cc1NC(=O)C1CCCN(S(=O)(=O)c2cccc3nonc23)C1 (stereo not given) do in these assays?
KCNQ2 pot: 0.74; KCNQ2 pot baseline: 0.07

How did O=C(N/N=C/c1ccc(O)c(O)c1)c1cccc(S(=O)(=O)N2CCCCC2)c1 do in these assays?
KCNQ2 pot: 0.45; KCNQ2 pot baseline: -0.19

How did CCCC(c1nnnn1Cc1cccs1)N1CCN(c2nc3ccccc3s2)CC1 (stereo not given) do in these assays?
KCNQ2 pot: 0.54; KCNQ2 pot baseline: 0.12

What do the screens show for `CCNC(=S)Nc1cccc(F)c1C`?
KCNQ2 pot: 0.65; KCNQ2 pot baseline: -0.87

How did CCC1(C(=O)OC)NC(c2ccco2)C2C(=O)N(c3ccccc3)C(=O)C21 (stereo not given) do in these assays?
KCNQ2 pot: 1.8; KCNQ2 pot baseline: -1.2

What do the screens show for `CCCNc1nc(Cl)nc(Nc2ccc(Cl)cc2)n1`?
KCNQ2 pot: 0.23; KCNQ2 pot baseline: 0.27

How did Oc1ccc(-n2cnnn2)cc1 do in these assays?
KCNQ2 pot: 0.15; KCNQ2 pot baseline: -1.4

How did CCc1nnc(NC(=O)CSc2nc3c(cc2C#N)CCC3)s1 do in these assays?
KCNQ2 pot: 0.07; KCNQ2 pot baseline: 2.2

What do the screens show for `COc1ccc(C(=O)NNC(=O)C(=O)Nc2ccc(C)cc2)cc1`?
KCNQ2 pot: 28*; KCNQ2 pot baseline: 0.02*

What do the screens show for `Fc1ccc(CN2C3=NCCCN3c3ccccc32)cc1`?
KCNQ2 pot: 0.64; KCNQ2 pot baseline: -2.4

Results for Cc1ccc(OCCc2csc(N)n2)cc1 ?
KCNQ2 pot: 0.27; KCNQ2 pot baseline: -0.56

What do the screens show for `C/C(=N\Nc1ccc(F)cc1F)c1cccs1`?
KCNQ2 pot: 0.98; KCNQ2 pot baseline: -1.8

What do the screens show for `CC(=O)c1ccc(NC(=S)NC(=O)CC(C)C)cc1`?
KCNQ2 pot: 1.2; KCNQ2 pot baseline: 0.58

How did O=C(NC1CCS(=O)(=O)C1)c1ccc(S(=O)(=O)N2CCCC2)cc1 (stereo not given) do in these assays?
KCNQ2 pot: 1.5; KCNQ2 pot baseline: -1.9

Results for CCOC(=O)C1=C(O)CSC1=Nc1cccc(Cl)c1 ?
KCNQ2 pot: 0.27; KCNQ2 pot baseline: 1.5

Compounds shown so far with a thiophene ring, fused or not (six):
Results for CN(C(=O)COc1ncnc2sccc12)c1ccccc1 ?
KCNQ2 pot: 1.1; KCNQ2 pot baseline: 0.07

What do the screens show for `Cc1ccccc1C(=O)N(CC(=O)Nc1sc(C)c(C)c1C(N)=O)C1CCCC1`?
KCNQ2 pot: 2.8; KCNQ2 pot baseline: -1.1

Results for Cc1cc(C)nc(NC(=O)/C=C/c2cccs2)c1 ?
KCNQ2 pot: 1.8; KCNQ2 pot baseline: 0.12

Results for Cc1nc2sc3c(c2c(=O)n1N)CCC3 ?
KCNQ2 pot: 0.66; KCNQ2 pot baseline: 0.05

How did CCCC(c1nnnn1Cc1cccs1)N1CCN(c2nc3ccccc3s2)CC1 (stereo not given) do in these assays?
KCNQ2 pot: 0.54; KCNQ2 pot baseline: 0.12

What do the screens show for `C/C(=N\Nc1ccc(F)cc1F)c1cccs1`?
KCNQ2 pot: 0.98; KCNQ2 pot baseline: -1.8

Next entries:
Results for CC(=O)c1ccc(CCCCCCCCCC(=O)O)s1 ?
KCNQ2 pot: 0.85; KCNQ2 pot baseline: -1.2

Results for CCNC(=O)n1cc(-n2cncn2)c(-c2ccc(Cl)cc2)n1 ?
KCNQ2 pot: 0.34; KCNQ2 pot baseline: 0.38

Results for Cc1c(C(=O)N2CCOCC2)[nH]c2c1C(=O)CC(c1ccccc1Cl)C2 (stereo not given) ?
KCNQ2 pot: 0.28; KCNQ2 pot baseline: -0.66

What do the screens show for `CCCOC1CCCN(C(=O)c2cc(COc3ccc(-n4cncn4)cc3)on2)C1` (stereo not given)?
KCNQ2 pot: 0.44; KCNQ2 pot baseline: 2.2

Results for CC(=O)c1cccc(NC(=O)CC2Oc3ccc(C)cc3NC2=O)c1 (stereo not given) ?
KCNQ2 pot: 1.1; KCNQ2 pot baseline: -0.58

How did CC(C)CNC(=O)COC(=O)c1cc(S(=O)(=O)N2CCCCC2)ccc1N1CCOCC1 do in these assays?
KCNQ2 pot: 0.71; KCNQ2 pot baseline: 1.1

Results for Cn1c(CNC(=O)CNS(=O)(=O)c2ccc(F)cc2F)cc(=O)n(C)c1=O ?
KCNQ2 pot: 1.8; KCNQ2 pot baseline: -0.72

Results for O=C(CSc1nncs1)N1CCN(C(=O)c2ccco2)CC1 ?
KCNQ2 pot: 0.58; KCNQ2 pot baseline: 0.56

What do the screens show for `COc1ccc(C)cc1NC(=S)N1CCN(S(C)(=O)=O)CC1`?
KCNQ2 pot: 1.8; KCNQ2 pot baseline: -1.1

How did O=C(Nc1ccc(F)cc1F)c1ccccc1NC(=O)C1CC=CCC1C(=O)O (stereo not given) do in these assays?
KCNQ2 pot: 0.99; KCNQ2 pot baseline: 0.59

Results for CCCOc1ccc(-c2c(C(=O)N/N=C(\C)c3cccnc3)nnn2-c2nonc2N)cc1 ?
KCNQ2 pot: 1.3; KCNQ2 pot baseline: -3.3

How did CCOc1ccccc1C1CC(=O)Nc2cc3c(cc21)OCCO3 (stereo not given) do in these assays?
KCNQ2 pot: 1.9; KCNQ2 pot baseline: -0.19

What do the screens show for `CCCn1c(=O)c2c(nc3n2CCCN3CCc2ccccc2)n(C)c1=O`?
KCNQ2 pot: 1.1; KCNQ2 pot baseline: 0.01

How did Cc1cc(SCC(=O)NC2CCCCC2)nc2ccccc12 do in these assays?
KCNQ2 pot: 0.31; KCNQ2 pot baseline: -0.7

How did O=C1CCCc2c1cnc1ncnn21 do in these assays?
KCNQ2 pot: 0.39; KCNQ2 pot baseline: 0

Results for O=C(CCC(=O)N1CCN(c2ccccc2F)CC1)N1CCN(c2ccccc2)CC1 ?
KCNQ2 pot: 0.43; KCNQ2 pot baseline: 1.1

Results for CC(C)COc1ccc(C(=O)NC(CC(C)C)C(=O)O)cc1 (stereo not given) ?
KCNQ2 pot: 0.89; KCNQ2 pot baseline: 0.37

What do the screens show for `N[C@@H](Cc1cc(I)c(Oc2ccc(O)c(I)c2)c(I)c1)C(=O)O`?
KCNQ2 pot: 0.38

What do the screens show for `COc1ccc(CN2CCN(C(=O)CN3C(=O)C4C5C=CC(C5)C4C3=O)CC2)c(OC)c1OC` (stereo not given)?
KCNQ2 pot: 0.11; KCNQ2 pot baseline: -0.14

What do the screens show for `COc1ccc(S(=O)(=O)N2CCC(C(=O)NCc3ccc(C)cc3)CC2)cc1`?
KCNQ2 pot: 0.11; KCNQ2 pot baseline: -2.1

What do the screens show for `COc1ccc(C2=Nc3ccc(C)cc3C(c3ccccc3)N2CC(=O)NN)cc1` (stereo not given)?
KCNQ2 pot: 2.7; KCNQ2 pot baseline: 0.07

Results for COc1ccc(/C=N/N=C2\SC(CC(=O)O)C(=O)N2c2ccccc2)cc1 (stereo not given) ?
KCNQ2 pot: 1.5; KCNQ2 pot baseline: -2.2

2 entries picked at random from the list so far:
How did CCN(CC)C(=O)C(=O)c1cn(CC(=O)N2CCc3ccccc3C2)c2ccccc12 do in these assays?
KCNQ2 pot: 0.14; KCNQ2 pot baseline: -2.3

How did CC(C)CNC(=O)COC(=O)c1cc(S(=O)(=O)N2CCCCC2)ccc1N1CCOCC1 do in these assays?
KCNQ2 pot: 0.71; KCNQ2 pot baseline: 1.1
